ClpP mod = qHTS Assay for Activators of ClpP; ATP-dependent Clp protease proteolytic subunit (Bacillus subtilis (strain 168)), P80244; purified B. subtilis ClpP, FRET peptide cleavage, 20 min; Potency, µM (top dose mostly 57.5 µM), inactives show at the top dose activity change, negative = active; hit rate 1.9% among 340,000; active = well fitted falling curve with a large enough effect; inconclusive = small, poorly fitted or top-dose-only effect; inactive = no such curve, though single readings can be large or run the other way; note: the source files actives as falling curves though it sought activators and does not explain the sign; nearly all actives have a fitted effect of over 65% in size; many hits overshoot -100%
Target sequence (P80244 whole entry, looked up): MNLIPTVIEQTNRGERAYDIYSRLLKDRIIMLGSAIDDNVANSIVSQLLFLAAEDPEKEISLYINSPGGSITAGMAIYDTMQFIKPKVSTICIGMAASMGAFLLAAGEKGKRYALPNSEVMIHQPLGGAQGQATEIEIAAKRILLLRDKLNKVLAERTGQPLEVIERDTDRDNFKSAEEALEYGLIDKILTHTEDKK
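Buffer: 100 mM Tris/HCl pH8, 100 mM KCl, 0.05% low protease BSA, 2.5% glycerol, 0.01% Tween-20. ClpP 10 microg/mL final; 20 min RT; delta FRET normalized to ADEP and DMSO controls.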
Active calls of the source: *; ? = inconclusive. Potency is the fitted concentration of half-maximal effect. Some of the compounds tested; count on the stated rates, not on these rows.

SMILES	ClpP mod
CN1C(C(=O)Nc2ccc(F)cc2F)=CC(c2ccc3c(c2)OCO3)=NS1(=O)=O	0.1%
COc1ccc(OCc2ccc(-c3nc(C#N)c(NC(C)c4ccccc4)o3)o2)cc1 (centres undefined)	?
CC(C)C12CN3CC(C(C)C)(CN(C1)C3c1ccc(Cl)cc1)C2=O (centres undefined)	0.7%
CC1(c2nc3ccccc3[nH]2)c2ccccc2C(=O)N1Cc1ccccn1 (centres undefined)	-2.2%
Cc1cccc(N(CC(=O)NCCc2ccccc2)S(=O)(=O)c2ccccc2)c1C	0.5%
Cc1cc(C)c(NC(=O)CSc2nc3nc(C)cc(C)n3n2)c(C)c1	-3.4%
CCOc1ccc(-n2cc(-c3ccccc3)c3c(NCCc4ccccc4)ncnc32)cc1	25.1µM*
CCCCCCCCN1C(=O)[C@H](CC(=O)NCc2cccs2)C[C@@]2(C(=O)OCC)CCCC=C12	-2.4%
CCCc1nc(SC)ncc1C(=O)N1CCN(c2ccc(Cl)cc2)CC1	0.6%
O=C(CCCCn1c(=O)c2ccccc2n(Cc2ccccc2Cl)c1=O)NCCc1ccccc1	-3.7%
CCN(CC)c1ccc(NC(=O)c2cnn(-c3ccccc3)c2-n2cccc2)c(C)c1	12.7%
COc1cc(C(=O)C(=O)N2CCC(Cc3ccccc3)CC2)cc2ccccc12	-9.4%
O=S1(=O)CC(N2CCN(Cc3ccccc3F)CC2)CN1Cc1cn(Cc2ccc(Cl)cc2)nn1 (centres undefined)	1.6%
O=C(CSc1nc(-c2cccc(Cl)c2)nc2cc(=O)[nH]n12)Nc1ccccc1	-3.3%
O=C1NC[C@H](CCCCN2C[C@H](Cc3ccc(O)cc3)N(Cc3ccccc3)C(=O)C2=O)N(CCc2ccc(O)cc2)C1=O	1.7%
COc1ccccc1CNC(=O)c1ccc2c(c1)nc(C)n2-c1cccc(C)c1	-7.6%
COc1ccc(Cc2c(C(C)(C)C)nc3cc(C)c(Br)c(C)n23)c(C)c1	1.2%
O=C(CN1CCCN(Cc2ccccc2Cl)S1(=O)=O)Nc1ccc2c(c1)OCCO2	-0.7%
COc1ccc(-c2cc3ccc(O)c(CN4CCC(C)CC4)c3oc2=O)cc1OC	-25.1%
COC(=O)c1cc(NC(=O)c2cc3c(-c4ccccc4F)nn(C)c3s2)cc(C(=O)OC)c1	-10.0%

Gathered by group, the compounds so far with fluorine (three)
SMILES	ClpP mod
CN1C(C(=O)Nc2ccc(F)cc2F)=CC(c2ccc3c(c2)OCO3)=NS1(=O)=O	0.1%
O=S1(=O)CC(N2CCN(Cc3ccccc3F)CC2)CN1Cc1cn(Cc2ccc(Cl)cc2)nn1 (centres undefined)	1.6%
COC(=O)c1cc(NC(=O)c2cc3c(-c4ccccc4F)nn(C)c3s2)cc(C(=O)OC)c1	-10.0%

Back to the main list, starting five compounds before the break.
SMILES	ClpP mod
COc1ccccc1CNC(=O)c1ccc2c(c1)nc(C)n2-c1cccc(C)c1	-7.6%
COc1ccc(Cc2c(C(C)(C)C)nc3cc(C)c(Br)c(C)n23)c(C)c1	1.2%
O=C(CN1CCCN(Cc2ccccc2Cl)S1(=O)=O)Nc1ccc2c(c1)OCCO2	-0.7%
COc1ccc(-c2cc3ccc(O)c(CN4CCC(C)CC4)c3oc2=O)cc1OC	-25.1%
COC(=O)c1cc(NC(=O)c2cc3c(-c4ccccc4F)nn(C)c3s2)cc(C(=O)OC)c1	-10.0%
CCCCn1nnnc1C(c1ccccc1)N1CCN(c2ccc(OC)cc2)CC1 (centres undefined)	-12.9%
O=C(NC1CCCC1)c1cnn(-c2ccc(F)cc2F)c1C1CCNCC1	-1.0%
COc1ccc(CNC(=O)OC2CC3CC2[C@H]2CCCCN2C3=O)cc1 (some centres undefined)	0.4%
Cc1ccc(S(=O)(=O)c2nnn3c2nc(NC(C)c2ccccc2)c2sccc23)cc1 (centres undefined)	-6.9%
C=Cc1ccc(Cn2c(C(=O)O)c(CNCCc3ccco3)c3ccc(C)cc32)cc1	?
COc1ccc2c(c1)CC(C(=O)Nc1cc(Cl)ccc1C)CO2 (centres undefined)	-5.5%
Cc1cc(C)cc(-n2c(SCC(=O)NCc3ccco3)nc3c([nH]c4ccccc43)c2=O)c1	-8.5%
COc1ccc(-c2c(C)nn3c4c(cnc23)C(=O)CC(c2ccccc2)C4)cc1 (centres undefined)	0.3%
Cc1c(-c2ccc(Br)cc2)c(=O)oc2ccc(OC(=O)N3CCOCC3)cc12	-9.9%
CCCc1nnc(NC(=O)CSc2nnc3c4ccccc4n(CC)c3n2)s1	1.4%
Cc1ccc(C)c(N2CCN(C(=O)Cn3cnc4sc(C)c(S(=O)(=O)N5CCN(c6ncccn6)CC5)c4c3=O)CC2)c1	0.6%
COc1cccc(N2C(=O)C(CC(=O)Nc3cccc(F)c3)N(C(C)C)C2=O)c1 (centres undefined)	1.1%
CCc1ccc(NCc2cc3ccc(OC)cc3n(CC(=O)Nc3cccc(Cl)c3C)c2=O)cc1	2.4%
Cc1ccc(NC(=O)Nc2nnc(N3CCCCC3)s2)c(C)c1	0.8%
Cc1coc2c1c(C)cc1oc(=O)cc(C)c12	-25.8%
CCN(CC)CCCNC(=O)c1ccc2c(c1)NC(=O)C(CS(=O)(=O)Cc1ccc(F)cc1Cl)N2 (centres undefined)	3.16µM*
CC(C)CCNC(=O)CSc1nc2ccccc2nc1Cc1ccccc1	2.0%
CCOc1cc(C(=O)N2CCn3c4c(c5cc(C)ccc53)CCCC42)cc(OCC)c1OCC (centres undefined)	-3.2%
COc1ccccc1NC(=O)C1=C(C)Nc2nc(SCc3ccccc3Cl)nn2C1c1cccnc1 (centres undefined)	3.8%
O=C(Cn1c(=O)n(Cc2ccccc2)c(=O)c2sc3ccccc3c21)Nc1ccccc1	-19.4%
CCCNC(=O)Cn1nc(-c2ccc(F)cc2)c2cnc3ccc(F)cc3c21	-6.3%
Cc1cccc(C)c1N1C(=O)c2ccccc2NC(=O)C1C(=O)NCCc1ccccc1F (centres undefined)	-0.8%
CC1CCn2c(nc3cc(C(=O)NCc4ccccc4)ccc32)C1 (centres undefined)	-2.9%
COc1ccccc1NC(=O)C(Cc1ccccc1)NS(=O)(=O)c1cccc2nsnc12 (centres undefined)	-2.6%
CCOc1ccccc1NC(=O)Cn1nnc2sc3c(c2c1=O)CCC(C(C)(C)C)C3 (centres undefined)	1.5%
CCN(c1ccc(Cl)cc1)S(=O)(=O)c1nnc(NC(=O)C2CCCCC2)s1	0.2%
CCN(c1ccc(Cl)cc1)S(=O)(=O)c1nnc(NC(=O)c2ccco2)s1	-10.6%
N#C/C(=C\c1ccc(OCc2ccc(Cl)cc2Cl)cc1)c1nc2ccccc2[nH]1	-5.5%
CCOC(=O)c1c(N)n(-c2ccc(C)c(C)c2)c2nc3ccccc3nc12	4.2%
CCOC(=O)c1cc(S(=O)(=O)N2CCN(c3ccccc3OC)CC2)[nH]n1	0.4%
CCOC(=O)c1cc2c(=O)n3ccccc3nc2n(CC(C)C)c1=NC(=O)C(C)Oc1ccccc1 (centres undefined)	3.8%
CN1CCN(C(=O)OC2CC3CC2[C@H]2CCCCN2C3=O)CC1 (some centres undefined)	0.4%
Cc1ccc(-n2ncc3c(N(CCO)Cc4ccccc4)ncnc32)cc1	?
CCOC(=O)c1cc(-c2ccccc2)n(CCCC(=O)Nc2cccc(C)c2)c1C	-2.6%
Cc1ccc(NC(=O)C2CCCN(c3nnc(C)c4c(C)n(-c5ccccc5)nc34)C2)cc1Cl (centres undefined)	-11.0%
CCOc1ccc(CC(=O)Nc2c(C(=O)c3ccccc3)oc3ccc(Cl)cc23)cc1OCC	-0.5%
Cc1ccc(-c2cn3nc(N4CCCC(C(=O)Nc5ccc(F)cc5)C4)sc3n2)cc1 (centres undefined)	-1.7%
Cc1nc2ccc(S(=O)(=O)N(C)CC(=O)Nc3cccc(C(F)(F)F)c3)cc2s1	0.2%
CC1(c2nnnn2Cc2ccccc2)CCC(=O)N1CCOc1ccccc1 (centres undefined)	-1.7%
CCn1cc(C(=O)N2CCN(c3ccc(C)cc3)C(C)C2)c(=O)c2cc(S(=O)(=O)N3CCCC3)ccc21 (centres undefined)	1.3%

Structural class: the entries above with a cyano group (2)
SMILES	ClpP mod
COc1ccc(OCc2ccc(-c3nc(C#N)c(NC(C)c4ccccc4)o3)o2)cc1 (centres undefined)	?
N#C/C(=C\c1ccc(OCc2ccc(Cl)cc2Cl)cc1)c1nc2ccccc2[nH]1	-5.5%

As entered above.
Entry for CCOc1ccc(-n2cc(-c3ccccc3)c3c(NCCc4ccccc4)ncnc32)cc1 under ClpP mod: 25.1µM*
Entry for Cc1ccc(NC(=O)Nc2nnc(N3CCCCC3)s2)c(C)c1 under ClpP mod: 0.8%

The list goes on:
SMILES	ClpP mod
COc1cc2c(cc1OC)C(COc1cc(C)cc(C)c1)N(C(=O)COc1ccccc1)CC2 (centres undefined)	-9.9%
Cc1cccc(C)c1Nc1c(-c2ccccn2)nc2c(C)cccn12	-0.7%
COc1cccc(CNC(=O)c2cc(Sc3cccc(Cl)c3)nc3ccccc23)c1	-20.5%
COc1ccccc1-c1nnc(C2CCN(C(=O)c3cccc(Cl)c3)CC2)o1	-9.0%
Cc1ccc(S(=O)(=O)N2CCC(C(=O)Nc3cc(C)ccc3C)CC2)cc1	0.9%
COc1cccc(CSc2nc3n(n2)C(c2ccc(C(=O)O)cc2)C(C(=O)Nc2ccccc2)=C(C)N3)c1 (centres undefined)	-1.3%
Cc1ccc2c(c1)N(C(=O)N1CCC(C(=O)NCc3cccc(Br)c3)CC1)CCO2	0.9%
Cc1cccc(C)c1NC(=O)C(c1cccc2ccccc12)n1c(=O)c(-c2ccco2)nc2ccccc21 (centres undefined)	4.5%
CCOc1ccc(CNC(=O)CC(C)n2nc(C)cc2C)cc1OC (centres undefined)	-2.0%
COc1cc2[nH]c(=O)n(Cc3ccc(C(=O)N4CCN(c5cc(Cl)ccc5C)CC4)cc3)c(=O)c2cc1OC	-7.8%
COc1ccccc1-c1noc(-c2ccc(NCC3CCCO3)c([N+](=O)[O-])c2)n1 (centres undefined)	1.4%
CCCCN(CCCC)S(=O)(=O)c1ccc(C(=O)Nc2sc3c(c2C(N)=O)CCN(CC)C3)cc1	-0.7%
Cc1nc(-c2ccc(S(=O)(=O)N3CCN(c4cccc(Cl)c4)CC3)cc2)co1	-13.9%
COc1cccc(CNCCSc2nnnn2C)c1OCc1ccccc1F	-1.8%
CC(=O)Nc1ccc2nc(-c3cc(C)ccc3C)[nH]c2c1	4.3%
COc1cc(NC(=O)c2nnn(Cc3ccc(F)cc3)c2N)cc(OC)c1	-0.1%
Cc1cn(C)c(CC(=O)N2CCN(c3ccc(F)cc3)CC2)c1C(=O)O	-0.8%
COc1ccccc1NC(=O)C1=C(C)Nc2ncnn2C1c1cccn1C (centres undefined)	0.3%
COc1cccc(CNC(=O)Cn2cccc2C(=O)c2ccccc2)c1	0.4%
CCCCCCCCN1C(=O)[C@H](CC(=O)NCC23CC4CC(CC(C4)C2)C3)C[C@@]2(C(=O)OCC)CCCC=C12	-1.4%
COc1cc(C2c3c(oc4ccc(C)cc4c3=O)C(=O)N2Cc2ccc(F)cc2)ccc1O (centres undefined)	-7.1%
CCc1nn(CC(=O)N2CCN(c3ccc(Cl)cc3)CC2)c(=O)c2cc3occc3n12	-9.8%
CC(=O)OCc1cnc(C)c2oc(=O)c(C(=O)Nc3cc(F)ccc3C)cc12	-2.2%
Cn1c(=O)n(C)c2cc(NS(=O)(=O)c3ccc(Cl)cc3)c(NCc3ccccc3)cc21	4.2%
CN(C)c1ccc(C(=O)Nc2c(C(=O)NC(C)(C)C)oc3ccccc23)cc1	?
CCOC(=O)[C@]12CCCC=C1N(CCc1ccc(OC)c(OC)c1)C(=O)[C@H](CC(=O)N1CCN(C(=O)C3CC3)CC1)C2	0.2%
Cc1ncc(CO)c2c1Oc1nc(-c3ccccc3F)nc(SCC(=O)N3CCCCC3)c1C2	0.3%
CCCCN(Cc1ccc(Cl)c(Cl)c1)c1ccc(Br)cn1	?
COc1ccc(-c2c(C)c3ccc(O)c(CN4CCC(C)CC4)c3oc2=O)cc1OC	4.1%
O=C(Nc1ccccc1Sc1ccccc1)c1cnn2c1NC(=C1CC1)C=C2C(F)(F)F	-0.8%
Cc1cn2c(=O)c(S(=O)(=O)Nc3ccc(F)cc3F)c(C)nc2s1	-3.4%
CCOC(=O)c1ccc(NC(=O)Nc2cc3c(cc2N2CCCC2)n(C)c(=O)n3C)cc1	-0.6%
CCC(CC)C(C(=O)NCc1ccccc1)N1CCN(C(=O)C2CCCO2)CC1 (centres undefined)	0.0%
COCCNC(=O)Cn1c(=O)c2cccn2c2ccc(F)cc21	?
Cc1ccc(NC(=O)CCS(=O)(=O)c2cccc3nsnc23)c(C)c1	-3.4%
COC(=O)c1c(-c2ccc(Cl)cc2)noc1N1CCN(c2ccc(C(C)=O)cc2)CC1	0.4%
COc1ccc(C(=O)Nc2nc3nc(C)c(Cc4ccccc4)c(=O)n3[nH]2)cc1OC	1.2%
Cc1ccc(-n2nc(CO)c(C(=O)NCCCCc3ccccc3)n2)cc1	10µM*
Cc1cccc(CNC(=O)c2ccc3nc(-c4ccccc4)c(-c4ccccc4)nc3c2)c1	?
Cc1cc(C)cc(Cn2cc(CN3CC(N4CCN(Cc5ccccc5F)CC4)CS3(=O)=O)nn2)c1 (centres undefined)	-0.6%
Cc1oc(-c2ccc(Cl)cc2)nc1Cn1c(=O)cc(C)c2c(C)nn(-c3ccccc3)c21	-3.3%
COc1ccccc1CNC(=O)C(=O)NCC(c1cccnc1)N1CCN(c2ccc(F)cc2)CC1 (centres undefined)	-2.3%

High-throughput results (PubChem BioAssay)
